HCMV NEC inh = cytomegalovirus nuclear egress complex inhibition. 190,000 compounds, 0.15% hits. AID 1918969. HTRF UL50-UL53 interaction, normalized percent inhibition. inhibition, % (concentration not given with the values);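 active = both replicates at 50% or more, plus weaker picks with an unusually low signal ratio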;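 also: stock transfer was 100 nL into about 20 µL; 0% = negative control wells and 100% = wells with untagged competitor protein; inactives centre near -12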
GIV-Gai inh = inhibitors of GIV GBA-motif binding to rat Galpha-i3 | P08753 | Galpha-i3/FITC-GIV peptide fluorescence polarization, 90 min; stronger effect = lower value; scaled: aluminum fluoride 0%, vehicle 100% | percent of control (FP), % (test concentration not listed) | 210,000 compounds, 0.42% hits;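 active = replicate mean at 85% of control or lower, very high polarization wells dropped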;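 also: wells of about 15 µL received 100 nL stock; the first replicate is given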
Target sequence (P08753 whole entry, looked up): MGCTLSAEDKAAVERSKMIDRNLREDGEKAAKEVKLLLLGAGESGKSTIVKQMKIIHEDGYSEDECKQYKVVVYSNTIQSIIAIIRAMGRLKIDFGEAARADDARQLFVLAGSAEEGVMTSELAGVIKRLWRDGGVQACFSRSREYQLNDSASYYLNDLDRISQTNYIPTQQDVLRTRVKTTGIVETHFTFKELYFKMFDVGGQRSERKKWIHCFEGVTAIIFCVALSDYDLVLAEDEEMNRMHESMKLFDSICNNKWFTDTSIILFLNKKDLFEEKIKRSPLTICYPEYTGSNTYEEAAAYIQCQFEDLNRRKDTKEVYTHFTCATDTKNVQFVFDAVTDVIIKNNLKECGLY
Sa growth inh = S. aureus growth inhibition; 170,000 compounds, 0.53% hits; relative growth, % (concentration not given with the values); S. aureus RN4220 growth, OD600, 20 h, 42 °C; stronger effect = lower value;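 active = growth at 42 °C up to 50% and 20 or more points under that at 30 °C, or under 10% at both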;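 also: 300 nL library stock went into each well; scaled to the means of positive and negative controls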
Sa growth inh second temp = recorded beside Sa growth inh, whose call it bears; relative growth, %; measured here: growth at 30 °C;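 optical density after 20 h as mean of two plates; 100% = untreated growth and lower means inhibition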
An asterisk follows results filed as active; . = not tested or not shown; & = joins results of further samples. Outcome played no part in choosing rows, and some 0.8% of all compounds hit somewhere here.

Preview, 2 compounds:
Screens in order: HCMV NEC inh	GIV-Gai inh	Sa growth inh	Sa growth inh second temp
CCOC(CCn1c(SCC(=O)NC2CCCCC2)nc2ccccc2c1=O)OCC
  -20.9	102.6	93.1	84.6
CC1(C)C(=O)C2(C(=O)Nc3cccc(C(F)(F)F)c3)CCC1C2 (stereo unspecified)
  2.4	112.3	110.2	93.5

The listing, repeating the preview:
Screens in order: HCMV NEC inh	GIV-Gai inh	Sa growth inh	Sa growth inh second temp
CCOC(CCn1c(SCC(=O)NC2CCCCC2)nc2ccccc2c1=O)OCC
  -20.9	102.6	93.1	84.6
CC1(C)C(=O)C2(C(=O)Nc3cccc(C(F)(F)F)c3)CCC1C2 (stereo unspecified)
  2.4	112.3	110.2	93.5
Cc1ccc(C(=O)c2cn(CC(=O)Nc3ccc4c(c3)OCCO4)c3nc(C)ccc3c2=O)cc1
  .	105.0	82.2	87.2
Cc1c(C(C)(C)C)sc(=N)n1C
  -4.8	106.1	98.7	86.7
Cc1ccc(CNC(=O)C2CCC(=O)N2C2CCCC2)cc1 (stereo unspecified)
  7.2	105.2	99.9	88.5
CC(C)CC[n+]1[nH]ccc1N
  -29.7	.	80.2	84.1
Cc1ccccc1C1NC(=O)Cc2ccccc21 (stereo unspecified)
  -9.0	102.8	105.6	110.2
CC(C)NC(=O)Cn1cc(C(=O)C(C)(C)C)c2ccccc21
  .	101.3	120.3	87.1
CCN(CC(O)c1cccc(O)c1)C(=S)Nc1cccnc1 (stereo unspecified)
  -10.5	.	66.5	54.2
Cc1ccc2c(c1)N(CCCC(=O)NCc1cccc(F)c1)C(=O)CO2
  20.0	108.6	95.6	85.0
O=C(CNCC1CCCCC1)Nc1cccc(F)c1
  -1.2	108.0	101.8	80.0
O=S(=O)(Nc1ccccc1Cl)c1ccc2[nH]c(=S)oc2c1
  .	95.9	83.0	71.7
COC(=O)c1ccccc1NC(=O)Cn1c(CCC(=O)O)ccc1-c1cccs1
  -27.7	100.5	98.7	85.1
Cc1cc(N2CCN(C(=O)C3CCC3C(=O)O)CC2)c2ccccc2n1 (stereo unspecified)
  -22.0	93.8	101.3	88.7
CC(=O)N/N=C/c1ccccc1
  -13.7	100.7	114.5	79.5
Cc1sc2nc(CSCC(=O)c3cc(C)n(-c4ccc(Br)cc4)c3C)[nH]c(=O)c2c1C
  -5.3	.	92.4	100.1
Cc1ccc(C(=O)c2oc3ccccc3c2NC(=O)c2cc(=O)c3cc(C)ccc3o2)cc1
  11.0	107.4	83.8	90.9
Cc1[nH]c(=S)[nH]c(=O)c1Oc1ccc(=O)[nH]n1
  -31.0	101.5	86.2	83.4
Cc1ccc(-n2c(C)cc(C=C3C(=O)c4ccccc4C3=O)c2C)cc1
  .	133.7	86.2	87.5
c1ccc(OCCn2c(C3CCCO3)nc3ccccc32)cc1 (stereo unspecified)
  -21.6	105.0	.	.

(more compounds)
Screens in order: HCMV NEC inh	GIV-Gai inh	Sa growth inh	Sa growth inh second temp
Cc1nn2c(NC3CCCC3)cc(C(C)(C)C)nc2c1-c1ccc(F)cc1
  -13.6	98.0	.	.
O=C(Nc1cccnc1)C(Cc1ccccc1)N1C(=O)C2C3C=CC(C3)C2C1=O (stereo unspecified)
  -10.6	105.0	95.1	77.7
O=C(O)CC1=Nn2c(nnc2-c2cccs2)SC1
  -15.6	102.6	118.4	89.9
CCOc1ccc(NC(=O)CSc2cn(CC(=O)N3CCOCC3)c3ccccc23)cc1
  .	104.8	127.8	84.3
COc1ccc(-c2oc3ncn(CCCO)c(=N)c3c2-c2ccc(OC)cc2)cc1
  -33.5	108.1	78.0	68.4
COc1ccc(OCCN2CCN(C(=O)c3c(C)nn(-c4ccc(F)cc4)c3C)CC2)cc1
  0.1	.	97.0	85.0
CCOc1ccccc1CNS(=O)(=O)c1ccc2c(c1)CCCN2C(C)=O
  .	104.7	105.3	81.3
Cc1cc2ccccc2c(=O)n1CC(=O)NCC(=O)NC1CCCCC1
  3.2	103.9	107.2	95.0
COc1cccc(C2CC(c3ccccc3)=NN2C(=O)CCCC(=O)O)c1OC (stereo unspecified)
  -34.6	101.3	.	.
Cc1ccccc1C1=NC(c2ccc(F)cc2F)ON1 (stereo unspecified)
  -41.1	.	83.1	86.9
COc1ccc(CNC(=O)CCc2c(C)nc3nc(C)nn3c2C)cc1
  -2.7	105.6	103.3	84.5
CSc1c(C)c(C#N)c(=O)n(NC(=O)COc2ccc(C#N)cc2)c1C
  -21.9	.	102.7	90.2
CC1(C)CC2CC(C)(CN2C(=O)COc2ncnc3ccccc23)C1 (stereo unspecified)
  -2.2	.	94.8	90.4
Cc1cc(C)nc(SCC(=O)n2c(C)c(C)c3ccccc32)n1
  6.8	108.2	98.7	99.0
Cc1ccccc1NCC1SC(=S)NC1=O (stereo unspecified)
  -22.7	.	115.0	87.6
CC(=O)N(CC(C)C)c1nnc(-c2cccnc2)s1
  -6.1	100.8	95.1	75.2
O=C(Cn1nc2n(Cc3ccc(F)cc3)c(=O)c3ccccc3n2c1=O)c1ccc(F)cc1
  -25.7	101.3	.	.
Cn1c(-c2nnc(SCC(=O)NC3CCCCC3)o2)cc2ccccc21
  20.9	105.0	.	.
Cc1nn2c(=O)cc(COC(=O)C(Cc3ccccc3)NC(=O)c3ccccc3)nc2s1 (stereo unspecified)
  -40.6	.	97.9	94.2
O=C(CSc1ncnc2nc(N3CCCC3)sc12)NCCC1=CCCCC1
  -5.6	105.9	.	.

Further structures follow.
Screens in order: HCMV NEC inh	GIV-Gai inh	Sa growth inh	Sa growth inh second temp
CSc1c(C#N)c(-c2cc(C(C)(C)C)oc2C)nn1C
  1.4	105.7	105.6	91.7
CCN(CC)c1ccc(C(=O)NCc2ccc3c(c2)CCN3C(=O)c2cccc(C)c2)cc1
  .	105.5	141.0	96.9
NC(=O)CCNS(=O)(=O)c1ccccc1
  -31.0	103.0	84.7	85.7
O=C(CCNc1ccccc1)n1c(=O)oc2ccccc21
  -3.2	.	104.6	94.7
COc1cc2nc[nH]c(=O)c2cc1OC
  -13.9&-12.8	102.9	86.5&97.6	83.5&90.3
O=C(NCC(c1ccc2c(c1)OCO2)N1CCOCC1)c1ccccc1F (stereo unspecified)
  .	95.3	83.0	96.1
O=C(CCC1CCCC1)OCC(=O)c1ccc2c(c1)OCO2
  -4.5	.	103.0	92.4
CC1(C)Cc2c(c(N3CCOCC3)nc3sc4c(=O)[nH]cnc4c23)CS1
  -30.1	107.5	100.6	94.8
COc1ccc(/C=c2\s/c(=C(/C#N)C(=O)Nc3cccc(C(F)(F)F)c3)n(Cc3ccco3)c2=O)c(OC)c1OC
  11.4	.	102.1	102.3
COCc1cc(C)nc2sc3c(=O)n(Cc4ccco4)nnc3c12
  -13.6	108.4	94.7	79.4
O=C1NC(c2cc3c(cc2Br)OCO3)Oc2ccccc21 (stereo unspecified)
  -8.6	101.1	104.6	100.5
Cc1ccc2c(c1)C1CC(C)(O2)N(Cc2ccccc2)C(=O)N1 (stereo unspecified)
  -12.8	98.1	103.6	97.5
CCc1cccc2c(/C=C3/C(=O)N(C)c4ccccc43)c[nH]c12
  .	103.2	103.6	101.0
CCSc1nnc(C2CCCN(Cc3cccnc3)C2)n1C(C)C (stereo unspecified)
  -10.1	107.5	102.5	78.4
CN(CCNC(=O)c1ccc(CN2C(=O)CCn3nccc32)cc1)Cc1ccccc1
  -2.2	101.1	.	.
NC(=S)CC(=O)NCc1ccccc1
  -6.0	.	92.0	91.7
CCN1C(=O)c2ccccc2Sc2ccc(NC(=O)c3cccc(C)c3)cc21
  .	106.0	116.1	99.9
O=C(CCN1c2ccccc2Sc2ccccc21)OCc1nnc(-c2ccccc2)o1
  -11.3	.	97.5	94.7
COc1ccc(NC(=O)CN(C)C(=O)C2CC(=O)N(c3cccc(C)c3C)C2)cc1 (stereo unspecified)
  -9.1	.	87.2	92.8
CC1CN(C(=O)CCC(=O)NCc2ccco2)c2ccccc2O1 (stereo unspecified)
  .	99.4	89.7	80.2

More records follow:
Screens in order: HCMV NEC inh	GIV-Gai inh	Sa growth inh	Sa growth inh second temp
COc1ccc(S(=O)(=O)CCc2nnc(NC(=O)c3ccc(Br)cc3)s2)cc1
  6.2	110.4	.	.
Cc1cc(C)c2c(=O)n(CC(=O)NCCCN3CCOCC3)sc2n1
  4.0	112.5	97.3	84.1
CCn1c(SC)nnc1C1CCCN(Cc2ccccc2)C1 (stereo unspecified)
  0.6	103.5	91.3	68.8
COc1ccc(-n2ccc(O)c(Cc3ccc(Cl)cc3)c2=O)cc1
  -5.3	106.1	.	.
O=C(CNc1ccccc1)N/N=C/c1ccccc1Cl
  -31.0	107.9	88.5	82.8
CCOc1ccc(NC(=O)c2cccc3c(=O)c4c([nH]c23)CCCC4)cc1
  -14.3	101.3	104.5	83.7
O=C1/C(=C/c2ccncc2)CCc2ccccc21
  -17.0	103.0	102.4	77.7
CCOC(=O)C1CCCN(CCc2ccccc2)C1 (stereo unspecified)
  -11.0	103.1	101.1	106.2
CCOCCOC(=O)COc1ccc2c(=O)c(-c3ccc(OC)c(OC)c3)c(C(F)(F)F)oc2c1
  -12.4	100.1	.	.
Cn1nnc2c(N3CCN(c4ccccc4)CC3)ncnc21
  .	94.7	81.0	92.4
CCN(C(=O)Cc1c(C(=O)O)n(CC)c2ccccc12)c1cc(OC)ccc1OC
  -19.1	104.1	.	.
O=C(NCc1ccc(F)cc1)NC1CC(=O)N(c2ccccc2)C1 (stereo unspecified)
  -23.5	98.6	90.1	84.8
O=C(CC1N=C2c3ccccc3N=C(SCc3ccc(F)cc3)N2C1=O)NCc1ccc2c(c1)OCO2 (stereo unspecified)
  .	101.6	62.6	59.6
COC(=S)Nc1ccc(C(C)C)cc1
  -11.7	98.4	95.2	55.5
CC(C)c1ccc(NC(=O)N2c3ccccc3Sc3ccccc32)cc1
  23.2	110.3	95.9	92.0
Cc1ccc(C(O)(CCN2CCCCC2)c2ccccc2)cc1 (stereo unspecified)
  -18.0	103.8	92.3	69.0
CCC(=O)Nc1ccccc1Cl
  -16.1	99.0	105.5	102.7
O=C1c2cccc3c(N4CCNCC4)ccc(c23)C(=O)N1c1ccc(Cl)cc1
  -72.8	-91.0*	106.7	103.8
NS(=O)(=O)c1ccc(NC(=O)CSC2=NC(=O)C(Cc3ccccc3)C(=O)N2)cc1 (stereo unspecified)
  -32.5	102.4	89.5	83.5
Cc1cc(Cl)ccc1NC(=O)C1CCCN(c2nc3cccnc3n(Cc3ccccc3)c2=O)C1 (stereo unspecified)
  -30.4	110.3	.	.

Full records as entered above. Order of values: HCMV NEC inh, GIV-Gai inh, Sa growth inh, Sa growth inh second temp
Listed for Cn1nnc2c(N3CCN(c4ccccc4)CC3)ncnc21 : ., 94.7, 81.0, 92.4
Listed for CCn1c(SC)nnc1C1CCCN(Cc2ccccc2)C1 (stereo unspecified) : 0.6, 103.5, 91.3, 68.8

Limited to Sa growth inh and GIV-Gai inh (7 entries from above):
molecule	Sa growth inh	GIV-Gai inh
CC(C)c1ccc(NC(=O)N2c3ccccc3Sc3ccccc32)cc1	95.9	110.3
Cc1cc(Cl)ccc1NC(=O)C1CCCN(c2nc3cccnc3n(Cc3ccccc3)c2=O)C1 (stereo unspecified)	.	110.3
CCn1c(SC)nnc1C1CCCN(Cc2ccccc2)C1 (stereo unspecified)	91.3	103.5
Cn1nnc2c(N3CCN(c4ccccc4)CC3)ncnc21	81.0	94.7
Cc1cc(C)c2c(=O)n(CC(=O)NCCCN3CCOCC3)sc2n1	97.3	112.5
CCC(=O)Nc1ccccc1Cl	105.5	99.0
O=C1c2cccc3c(N4CCNCC4)ccc(c23)C(=O)N1c1ccc(Cl)cc1	106.7	-91.0*

New compounds follow:
Screens in order: HCMV NEC inh	GIV-Gai inh	Sa growth inh	Sa growth inh second temp
O=c1[nH]c2ccccc2c2nncn12
  -17.8	100.8	105.9	89.8
CSC1=NCCN1C(=O)COc1ccccc1
  .	102.5	102.1	87.5
O=C1CCCC2=C1C(c1ccc(Cl)cc1)n1c(s/c(=C\c3cccnc3)c1=O)=N2 (stereo unspecified)
  -24.8	.	100.5	85.5
CC(C)(C)C(=O)Nc1c[nH]c(=O)[nH]c1=O
  2.9	.	82.8	92.6
O=C(NCc1ccc2c(c1)OCO2)C1CCN(c2ccc(F)cc2)C1=O (stereo unspecified)
  -5.1	101.1	.	.
CN(C(=O)CSc1nnc(-c2ccccc2)o1)c1c(N)n(Cc2ccccc2)c(=O)[nH]c1=O
  -12.0	.	99.3	87.5
Cc1cc(C)c2c(=O)cc(C(=O)Nc3ccc(C)c(Cl)c3)oc2c1
  3.2	111.6	88.0	90.6
CN(C)/C=C/C=C1C(=O)CC(C)(C)CC1=O
  -88.7	306.0	91.0	81.7
CC(C)Cn1c(=O)c(=O)[nH]c2cc(-c3noc(-c4cncc(Br)c4)n3)ccc21
  -31.5	103.2	.	.
O=C(O)c1ccnc(Cl)c1
  .	99.6	102.0	96.2
O=C(NC1CCCCC1)c1nc[nH]c1C(=O)NCC1CC1
  -18.7	103.6	.	.
CCCCC(=O)Nc1cc(-c2cn3cccnc3n2)ccc1C
  .	104.3	94.7	96.5
Cc1ccn2c(=O)c(C(=O)Nc3ccccc3C)cnc2c1
  -17.1	120.8	.	.
CSc1ncc(C(=O)OCc2ccc(C#N)cc2)n1-c1ccccc1
  -16.2	.	70.5	92.2
CC(C)C(=O)OCc1cc(=O)n2ccsc2n1
  -30.5	100.0	102.7	81.4
CCn1cc(C(=O)NCc2ccc(C)o2)c2cc(OC)c(OC)cc2c1=O
  2.6	109.8	95.4	96.2
O=C(O)CNC(=O)COc1ccc(-c2ccccc2)cc1
  7.7	.	105.9	104.7

Assay outcomes: PubChem, ICCB-Longwood Screening Facility, Harvard Medical School
